# Ba CapD inh: blocks the Bacillus anthracis CapD enzyme; purified CapD enzyme, fluorescence intensity read-out; stronger effect = lower value; some hits fall short of the stated cut; z-score (concentration not given with the values); 140,000 compounds, 0.23% hits; AID 492967;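 active = z-score under -4 in either of two replicates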;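 also: stock transfer was 100 nL into about 40 µL; score is relative to mean and spread of the plate; one replicate is shown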
# AID504770: growth inhibitors of E. coli YBA685 in a screen for V. cholerae RctB (chromosome II replication) inhibitors; 130,000 compounds, 0.27% hits; E. coli YBA685 rctB-dependent plasmid, OD600 growth, 3 h; stronger effect = lower value; z-score (no concentration beside the values);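 active = z-score under -2 on both plates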;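 also: wells of about 30 µL received 100 nL stock; score is relative to mean and SD of the test wells; the first replicate is given; strong numbers were not always called active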
# * hit, by the source's call; . = not tested or not shown; & = joins results of further samples. Outcome played no part in choosing rows. About 0.37% of those tested had a hit in this group.
# Each structure is followed by: Ba CapD inh | AID504770
- CC(C)(C)c1coc2cc3oc(=O)ccc3cc12
→ 1.08 | 1.2
- CCOC(=O)C1=C(C)Nc2c(C#N)c(N3CCOCC3)nn2C1c1ccc(OC)cc1 (stereo not drawn)
→ . | 1.15
- O=C(CCC(=O)c1ccc(F)cc1)OCc1ccc(Br)cc1
→ -0.1 | -0.15
- CCOC(=O)c1c(C)[nH]c(NC(=O)Nc2ccc(N(C)C)cc2)c1C
→ -0.765 | -0.25
- CCN(CC)C(=O)N1c2ccccc2C=Cc2ccccc21
→ 0.15 | .
- O=C(CSc1nc(NCc2ccccc2)c2ccccc2n1)c1ccc(F)cc1
→ 0.02 | 0.65
- CCOC(=O)c1ccccc1NC(=O)Cn1c(=O)n(Cc2nc(C)no2)c(=O)c2cc3c(cc21)OCO3
→ 19.4 | 0.05
- CCCCOC(=O)c1cc(=O)[nH]c(=O)[nH]1
→ 0.69 | 0.1
- O=C(COC(=O)C(Cc1c[nH]c2ccccc12)NC(=O)c1ccc(Br)cc1)c1ccccc1 (stereo not drawn)
→ -0.05 | .
- O=S(=O)(c1ccccc1)c1cscc1NC(=S)Nc1ccccc1Cl
→ -0.015 | -0.55
- O=C(CSc1nc2ccc(Nc3nc(N4CCOCC4)nc(N4CCOCC4)n3)cc2s1)NCC1CCCO1 (stereo not drawn)
→ -0.075 | .
- COC(=O)c1sc(S(=O)(=O)NC23CC4CC(CC(C4)C2)C3)c(C(=O)OC)c1C
→ 1.54 | 1.55
- CCC(=O)Nc1ccc2nc(-c3ccccc3)[nH]c2c1
→ 68.3 | 0.15
- N#Cc1ccsc1NC(=O)/C=C/c1ccccc1
→ 0.5 | 1.25
- O=C(Nc1ccc(OCc2ccccc2)cc1)N1CCN(c2ccccn2)CC1
→ 6.72 | 2.9
- O=C1CC(C(=O)N2CCN(c3ccc(F)cc3)CC2)CN1CCc1ccccc1 (stereo not drawn)
→ -0.815 | -0.45
- Clc1ccc(Oc2cc(Cl)c(-c3ccccc3)nn2)c(Cl)c1
→ -0.745 | .
- N#Cc1ccc(-c2cccnc2)nc1SCC(=O)O
→ 95.7 | 0.45
- O=C(CC1Sc2ccccc2NC1=O)OCn1nnc2ccccc2c1=O (stereo not drawn)
→ . | -2.15
- Cc1cc(NC(=O)Cn2c3ccccc3c(=O)c3ccccc32)ccc1Br
→ 16.6 | .

# Taken from above:
# O=C(COC(=O)C(Cc1c[nH]c2ccccc12)NC(=O)c1ccc(Br)cc1)c1ccccc1 (stereo not drawn) in Ba CapD inh is entered as -0.05
# O=C(CSc1nc(NCc2ccccc2)c2ccccc2n1)c1ccc(F)cc1 in Ba CapD inh is entered as 0.02

# The list goes on:
# Each structure is followed by: Ba CapD inh | AID504770
- Cc1cccc(NC(=O)CNC(=O)c2ccc(S(=O)(=O)NCc3ccco3)cc2)c1C
→ . | 1.6
- Cc1nc(N2CCOCC2)c2c(C)c(C(=O)NCCN(C)c3ccccc3)sc2n1
→ -0.385 | .
- Cc1sc2c(c1C)CSC(C(=O)O)=C2
→ -0.885 | -1.45
- O=C(NCc1ccccn1)c1ccccc1
→ . | -0.1
- C=CCNc1nc(SCc2ccccc2Cl)nc(-c2ccccc2)c1C#N
→ 13.2 | .
- CCc1ccc2[nH]c(C(=O)N(C)c3ccc(F)cc3F)cc2c1
→ -0.04 | 0.4
- CCOC(=O)C1C2c3ccccc3C(c3ccccc32)C1C(=O)OCC (stereo not drawn)
→ -0.12 | -0.45
- COc1ccc(OC)c(C2C(C#N)=C(N)OC3=C2C(=O)CC(c2ccccc2)C3)c1 (stereo not drawn)
→ -0.295 | .
- CCc1ccc(-c2nc(CN3CCC(C(=O)NC4CC4)CC3)c(C)o2)cc1
→ 0.685 | 1.75
- COC(=O)C1=C(O)C2(C(=O)O)CC(C(=O)OC)=C(O)C(C(=O)O)(C1)C2
→ -0.29 | -0.95
- CCN(CC)C(=O)CSc1nnc(-c2ccco2)n1CCCOC
→ . | -0.65
- O=C(Nc1ccc(S(=O)(=O)N2CCCCC2c2cccnc2)cc1)c1cccc(Br)c1 (stereo not drawn)
→ 0.395 | .
- O=C(NC(=S)N1CCOCC1)C12CC3CC(CC(C3)C1)C2
→ . | 0.5
- CCN(CC)c1ccc(-c2nnc(SCC(=O)N3CCNC3=O)n2C)cc1
→ . | 1.3
- CCN(Cc1ccccc1)C(=O)c1ccc(C#N)cc1
→ . | 0.45
- COc1cc(C2C(C#N)=C(N)Oc3n[nH]c(-c4ccc5c(c4)OCO5)c32)cc(Cl)c1O (stereo not drawn)
→ -0.82 | .
- Cc1ccc(S(=O)(=O)NC(=O)Nc2nc(-c3ccccc3)cs2)cc1
→ 0.165 | .
- O=C(NCC(=O)N1CCN(S(=O)(=O)c2ccccc2)CC1)c1ccc(Cl)cc1
→ . | 1.7
- Cc1noc(C)c1CSCC(=O)NC1CCCc2ccccc21 (stereo not drawn)
→ . | 0.95
- C=CCNC(=O)c1cc(C(=O)C(C)c2ncc(C(F)(F)F)cc2Cl)c[nH]1 (stereo not drawn)
→ 0.355 | .
- CN(C)S(=O)(=O)c1cccc(C(=O)OCC(=O)N2CCCCC2)c1
→ . | 1.7
- CCOc1cc2[nH]c(=S)n(CCCCC(=O)NC3CCCCC3)c(=O)c2cc1OCC
→ 3.23 | -0.15
- O=P(O)(CCc1ccccc1)CN1CCCCC1
→ 0.09 | 1.35
- Cc1ccc(NS(=O)(=O)c2cccc(C(=O)NC3CC3)c2)c(C)c1
→ -0.335 | -1.05
- Cc1c2cn[nH]c(=O)c2c(C)n1Cc1ccccc1
→ 1.65 | 1.75
- S=C(NC1CC2C=CC1C2)N1CCC(CCCC2CCN(C(=S)NC3CC4C=CC3C4)CC2)CC1 (stereo not drawn)
→ 0.485 | .
- COC(=O)c1scc(C)c1Cl
→ -0.205 | .
- CC(=O)Nc1ccc(S(=O)(=O)Nc2ccc3c(c2)OC(C)(C)O3)cc1
→ . | -0.2
- COc1ccccc1NS(=O)(=O)c1ccc(N)cc1
→ . | 2.7
- COc1ccc(COC(=O)C2=C(C)NC3=C(C(=O)CC(c4cccs4)C3)C2c2ccc3c(c2)OCO3)cc1 (stereo not drawn)
→ 8.12 | .
- CS(=O)(=O)Nc1ccccn1
→ . | 1.35
- O=C(COC(=O)c1ccc(-c2nc3ccccc3s2)s1)NC1CC1
→ . | -0.8
- CCC(CC)C(=O)n1c(=O)oc2ccc(C)cc21
→ 0.595 | -0.7
- COc1ccccc1OCCN1CCN(CCOc2ccccc2OC)CC1
→ -0.9 | -0.2
- CCN1/C(=C/C=C2\SC(=S)N(C)C2=O)Oc2ccccc21
→ . | -0.3
- COc1cc(OC)nc(Sc2ccc(NC(=O)Cc3ccccc3)cc2)n1
→ -0.15 | .
- CCOc1ccc(C2C(N3C(=O)c4ccc([N+](=O)[O-])cc4C3=O)C(=O)N2c2ccc(Cl)cc2)cc1 (stereo not drawn)
→ -0.125 | .
- CC(C)n1ncc2c(C(=O)N3CCc4ccccc43)cc(C3CC3)nc21
→ . | -0.3
- CC(C)(C(=O)Oc1ccccc1)S(=O)(=O)c1ccc(C(F)(F)F)cn1
→ 0.16 | -0.1
- CCCC(=O)N(c1ccc2oc(C)c(C(=O)OCC)c2c1)S(=O)(=O)c1ccc(Cl)cc1
→ -0.45 | .
- CC1Sc2ccc(Cl)cc2-c2nc(-n3cccc3)ncc21 (stereo not drawn)
→ -0.045 | 0.15
- COc1cccc(-n2ccnc2SCC(=O)Nc2ccccc2)c1
→ -0.44 | -0.9
- O=C(c1ccccc1)N1CCN(c2nc(-c3ccccc3)c3ccccc3n2)CC1
→ 0.03 | .
- CCCN(CCC)S(=O)(=O)c1ccc(C(=O)Nc2nnc(-c3ccccc3)s2)cc1
→ 7.86 | .
- O=C(O)CN(CC(=O)O)c1ccc2cccc(O)c2n1
→ 58.6 | 1.05
- CC1(C)CC(=O)C2=C(C1)c1c(ccc3ccccc13)NC2c1cn(Cc2ccc(Cl)cc2Cl)nc1-c1ccccc1 (stereo not drawn)
→ 18.5 | .
- Cc1cccc(CN2C(=O)CSc3nc(C)cc(C)c32)c1
→ -0.655 | -0.4
- COc1cc(/C=C2\SC(=O)N(Cc3ccc(F)cc3)C2=O)c(Br)cc1O
→ -0.35 | .
- O=C(O)/C=C/c1ccc2c(c1)CCC2
→ -0.245 | -0.4
- O=C(/C=C/c1ccc(Br)cc1)On1c(-c2ccc(F)cc2)nc2ccccc2c1=O
→ -0.175 | .
- Oc1ccc(/C=C/c2ccncc2)cc1
→ . | -0.35
- CCCCn1c(N)c(N2CCC(C(N)=O)CC2)c(=O)[nH]c1=O
→ . | -2.55
- Cc1cccc(OCc2nnc(SCC(=O)N3CC(=O)Nc4ccccc43)o2)c1
→ . | -2.05
- COc1ccc(-c2noc(N(C)CC(=O)Nc3cc(Cl)c(OC)cc3OC)n2)cc1
→ -0.695 | 1.05
- Cc1nc2ccc(NC(=O)c3ccccc3C(F)(F)F)cc2o1
→ -0.225 | 0.1
- COc1ccc(-c2onc(C)c2C)cc1S(=O)(=O)N(C)CC1COc2ccccc2O1 (stereo not drawn)
→ -2.96 | 2
- C[C@]12CCC3c4ccc(O)cc4CCC3C1CC[C@@H]2OC(=O)CCC1CCCC1 (stereo partly drawn)
→ -0.05 | 0.25
- COc1cc(S(=O)(=O)NCCc2c[nH]c3ccccc23)ccc1-n1cnnn1
→ 0.825 | -0.45
- COC(=O)CSc1nc2ccccc2nc1Cc1ccc(F)cc1
→ 0.165 | .
- CCN1C(=O)/C(=c2\sc3nc(-c4ccccc4C)nn3c2=O)c2ccccc21
→ 1.5 | 1.25

# Part of the list above, with bars between the fields.
compound | Ba CapD inh | AID504770
CCCN(CCC)S(=O)(=O)c1ccc(C(=O)Nc2nnc(-c3ccccc3)s2)cc1 | 7.86 | .
O=C(c1ccccc1)N1CCN(c2nc(-c3ccccc3)c3ccccc3n2)CC1 | 0.03 | .

# (cont.)
# Each structure is followed by: Ba CapD inh | AID504770
- CC(=O)N/N=C/c1c[nH]c2ccc(Br)cc12
→ . | 0.2
- [O-]c1n[n+](-c2ccccc2)no1
→ 0.27 | -3.05*
- COc1ccc(CCCc2nnc(SCC(=O)Nc3cc(F)ccc3C)o2)cc1C
→ 0.035 | -0.55
- COC(=O)C1=C(C)NC2=C(C(=O)CC(c3ccc(OC)c(OC)c3)C2)C1c1ccc(Br)cc1 (stereo not drawn)
→ 33.1 | .
- COc1ccc(N(C)S(=O)(=O)c2c(C)[nH]c(=O)[nH]c2=O)cc1
→ 0.335 | -0.15
- CCN(CC)C(=O)CSc1nnc(Cc2ccccc2)n1CC
→ . | -0.5
- CCc1nc(-c2ccc(OC)cc2)cc2cc(OC)c(OC)cc12
→ -1.11 | 0.85
- COc1cc(OC)c(NC(=O)Cn2c3ccccc3c3nc(=O)cc(C)n32)cc1Cl
→ 0.565 | -0.1
- Cc1cc2cc(NC(=O)c3cccs3)ccc2[nH]1
→ -1.1 | .
- CCOC(=O)CN1C(=S)N=C(Nc2ccccc2)C12CCCCC2
→ 34.5 | .
- O=C1CSCC(=O)N1Cc1ccncc1
→ 0.515 | -1.2
- O=C(NC(=O)c1cccs1)OC[C@@H]1CCCN2CCCCC12 (stereo partly drawn)
→ 0.18 | -0.6
- C=CCNC(=O)CSc1nnc(C(CC)N(C)C)n1C1CCCCC1 (stereo not drawn)
→ . | -0.4
- CCOc1ccc(-n2c(=S)sc3c2nc(SCc2cc(=O)n4cc(Cl)ccc4n2)n2c4ccccc4nc32)cc1
→ 0.26 | .
- COc1cccc([C@@H]2Nc3ccc(S(=O)(=O)Nc4ccccc4)cc3[C@@H]3C=CC[C@@H]32)c1
→ -0.08 | 2.15
- Cc1cc(C(=O)NNC(=O)CC(NC(=O)OC(C)(C)C)c2ccc(F)cc2)n[nH]1 (stereo not drawn)
→ 0.2 | .
- O=c1[nH]c(SCc2ccccc2)nc2c1cnn2-c1ccccc1
→ 0.315&-0.92 | -0.7&0.3
- O=C(c1cc2c(s1)-c1ccccc1OC2)N1CCCC1
→ -1.19 | 0.25
- CCOC(=O)c1c(C)n(Cc2ccccc2)c2ccc(OCC(O)CN3CCN(CCO)CC3)cc12 (stereo not drawn)
→ 0.345 | -0.4
- N/C(Cc1csc2ccccc12)=N\O
→ 0.12 | 0.05
- COc1ccc2oc3cc(C)nc(-c4ccccc4)c3c2c1
→ 51.4 | -0.3
- c1ccc(CO/N=C2/CCCc3c2cc(-c2ccccc2)n3-c2ccccc2)cc1
→ 0.375 | .
- CCN1C(=O)C(=Nc2ccc(S(=O)(=O)N3CCOCC3)cc2)c2ccccc21
→ . | 0
- COc1ccc(NNC(=O)C(O)(c2cccc(OC)c2)c2cccc(OC)c2)cc1
→ -0.03 | -0.55
- CSc1nnc2c3ccccc3n(Cc3ccccc3)c2n1
→ -0.73 | 1.8
- O=C(OCc1cccc(C(F)(F)F)c1)C1COc2ccccc2O1 (stereo not drawn)
→ . | -0.5
- CC(=O)Nc1ccc(S(=O)(=O)n2cc(C)nc2-c2ccccc2)cc1
→ . | 0.25
- CC(NC(=O)c1cccnc1Cl)c1nc(-c2ccncc2)n[nH]1 (stereo not drawn)
→ . | -0.6
- CCn1ccc(C(=O)Nc2nccs2)n1
→ -0.995 | -2.05
- O=S(=O)(c1ccc(-c2cc(C(F)(F)F)on2)s1)N1CCC(O)(c2ccc(Cl)cc2)CC1
→ -0.48 | 1.85
- CCNC(=O)c1ccc2c(c1)sc1nc(-c3ccccc3)cn12
→ 1.89 | 1.4
- O=C(Nc1nc(-c2ccncc2)cs1)c1ccc(Br)s1
→ 0.17 | 0.95
- COc1ccc(CCNc2nnc(-c3ccccc3)c(=O)n2C)cc1OC
→ -0.835 | -0.1
- CCOC(=O)c1c(NC(=O)CSc2nnc(CNC(=O)COc3ccc(Cl)cc3Cl)n2C)sc2c1CCC2
→ -0.365 | .
- Cc1nn(CCC(N)=O)c2nc(-c3cccnc3)cc(C(F)(F)F)c12
→ 105 | -0.15
- Cc1onc(-c2c(Cl)cccc2Cl)c1C(=O)NC(C)(C)CO
→ -0.245 | -0.15
- CC1CCCCN1C(=O)Cc1ccc(Br)cc1 (stereo not drawn)
→ 0.17 | -0.1
- O=C(OCc1cc(=O)oc2cc3c(cc12)CCC3)c1ccccn1
→ . | 0.5

# High-throughput results as filed in PubChem.
